BJeLR lethal = BJeLR cell viability loss; BJeLR (HRASV12) viability, CellTiter-Glo ATP luminescence, 48 h; reference of the scale not given here; AID 1554; inhibition, % (no concentration beside the values); hit rate 0.17% among 300,000;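 active = replicate mean above 50%; inconclusive = above 50% but judged a plate artefact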;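 also: 50 nL library stock added to about 25 µL; numbers are from one replicate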
Mtb hypoxia rep = inhibitors of hypoxia-regulated fluorescent reporter in Mycobacterium tuberculosis; M. tuberculosis hypoxia-regulated fluorescent reporter, fluorescence; fluorescence inhibition, % (test concentration not listed); hit rate 0.1% among 300,000; AID 1159583;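 active = 35 to 45% if threefold the growth effect, above 45% if 1.5-fold the growth effect; inactive = the rest, general growth blockers included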;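 also: wells of about 50 µL received 100 nL stock; 0% = vehicle wells and 100% = reference inhibitor wells; whole bacteria with a GFP reporter of the hypoxia response; strong numbers were not always called active; many hits fall short of the cut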
PrP 5UTR inh = inhibition of PrP 5' UTR reporter expression; cell-based PrP 5' UTR mRNA reporter, plate reader; inhibition, % (test concentration not listed); hit rate 0.35% among 340,000;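 active = every replicate at 50% or more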;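 also: 0 = median of the neutral control wells; tested in H4 reporter cells; numbers are from one replicate; inactives centre near -14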
Sa ugtP lethal = growth inhibition of S. aureus ugtP deletion strain; S. aureus RN4220 ugtP deletion, OD600 growth, 16 h; some inactives read as strong as hits; growth inhibition, % (concentration not given with the values); hit rate 0.54% among 330,000;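 active = z-score under -3 and OD600 up to 0.15 on both plates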;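 also: plate controls were untreated wells for no effect and antibiotic for full effect; wells of about 80 µL received 100 nL stock; the first replicate is given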
Autofluor counter = flagged as autofluorescent in microsphere protease counterscreen | compound autofluorescence counterscreen, microsphere flow cytometry; active compounds read high | fluorescence intensity (concentration not given with the values) | hit rate 3.1% among 360,000 | AID 624483;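 active = at least 3 SD above the mean of all compounds, about 16000 in these data; inconclusive = too few beads counted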;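 also: 100 nL of 1 mM stock went into each well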
Sa RN4220 lethal = kills Staphylococcus aureus RN4220; S. aureus RN4220 growth, OD600, 16 h; inhibition, % (concentration not given with the values); hit rate 0.33% among 330,000;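 active = z-score of -3 or lower and OD600 up to 0.18 on both plates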;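 also: plate controls were untreated cells for no effect and reference antibiotic for full effect; stock transfer was 100 nL into about 80 µL; one replicate is shown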
Mtb hypoxia rep growth = recorded beside Mtb hypoxia rep, whose call it bears; growth inhibition, %; measured here: M. tuberculosis growth (absorbance);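 0% = vehicle and 100% = reference antibiotic; read after six days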
* marks the source's active call; other numbers are inactive results; ? = inconclusive; · = no result given.

| molecule | BJeLR lethal | Mtb hypoxia rep | Mtb hypoxia rep growth | PrP 5UTR inh | Sa ugtP lethal | Autofluor counter | Sa RN4220 lethal |
| --- | --- | --- | --- | --- | --- | --- | --- |
| CN(CC(=O)Nc1ccc(N2CCOCC2)cc1)Cc1cc(=O)n2ccsc2n1 | 9 | 14 | 8 | -16 | 3 | 3951 | 4.2 |
| CCOc1ccccc1N/C=C/C(=O)C(C)(C)C | 2 | 0 | 8 | -25 | 0 | 8683 | 7.1 |
| COc1cc(/C=C/c2nc3ccc([N+](=O)[O-])cc3s2)ccc1OCC(=O)O | -12 | -9 | 2 | · | 11 | · | 4.8 |
| COc1cccc(C(=O)NCc2ccco2)c1 | 4 | 12 | 23 | -22 | 1 | 3556 | 2.5 |
| COc1ccc(C(CNC(=O)c2cccc(NS(=O)(=O)c3ccc(C)c(F)c3)c2)N2CCCC2)cc1 (configuration not stated) | 6 | 8 | 6 | -35 | 5 | 15336 | 1.5 |
| COc1ccc2nc(NC(=O)c3ccc(NS(=O)(=O)c4cccs4)cc3)sc2c1 | 6 | 4 | 3 | -14 | 12 | 1976 | 58 |
| CC(C)(C)C(=O)Nc1ccc(-c2nnc3n2CCCCC3)cc1 | -2 | 3 | -2 | -5 | 2 | · | 3.9 |
| CC1CCc2nn(CC(=O)NCc3ccc(F)cc3)cc2C1 (configuration not stated) | -4 | · | · | -12 | 0 | 5620 | -5.5 |
| O=[N+]([O-])c1ccc(NN=Cc2ccc(O)cc2O)nc1 | · | · | · | -28 | -4 | 3592 | 8.0 |
| NC(=O)c1ccsc1NC(=O)COC(=O)Cc1c[nH]c2ccccc12 | 3 | -5 | -10 | -16 | -5 | 4289 | 2.8 |
| COc1ccc(C2(C(=O)O)CCCC2)cc1 | -2 | 12 | 2 | -28 | 3 | 11317 | 7.9 |
| CC1CC(C)CN(CCCNC(=O)C2CCCN(S(=O)(=O)N3CC(C)CC(C)C3)C2)C1 (configuration not stated) | 1 | -3 | -3 | -13 | -1 | 4488 | -0.9 |
| CC1CN(C(=O)c2ccccc2)OC(c2ccc3c(c2)OCO3)O1 (configuration not stated) | -10 | 4 | 3 | -15 | 0 | 9785 | 1.4 |
| Cc1cc(=O)[nH]c(N2CCc3ccccc3C2)n1 | 21 | 11 | 8 | -40 | -1 | 25748* | 7.3 |
| CN(C)c1ccc(/C=N/NC(=O)CNC(=O)/C=C/c2ccco2)cc1 | -3 | · | · | -18 | · | 5928 | · |
| O=C(CSc1ccccn1)NC1CCCC1 | 2 | 5 | 3 | · | 2 | · | -3.3 |
| CCCCNC(=S)NNC(=O)c1ccc2c(c1)OCO2 | -2 | -1 | -5 | -13 | 0 | 1983 | 0.9 |
| O=C(O)c1cc(NC(=O)c2cccc(N3C(=O)c4ccccc4C3=O)c2)cc(C(=O)O)c1 | 0 | 3 | -4 | -17 | 4 | · | 0.8 |
| Cc1ccnc(NS(=O)(=O)c2ccc(NC(=O)CN3C(=O)CCC3=O)cc2)n1 | 0 | 12 | -3 | -5 | 13 | 2463 | 1.4 |
| CC(C)Cn1cnc2c1c(=O)n(CC(=O)NC(=O)NC(C)(C)C)c(=O)n2Cc1ccccc1 | -22 | 15 | 9 | -30 | 14 | 3835 | 0.2 |
| CN(C)CCCNc1nc(N)c([N+](=O)[O-])c(NC2CCCCC2)n1 | -9 | 1 | 6 | -5 | 18 | 3668 | 2.9 |
| CCOC(=O)C1(C)NC(c2ccco2)C2C(=O)N(c3ccccc3)C(=O)C21 (configuration not stated) | 3 | -3 | -3 | -1 | 6 | 4002 | 4.8 |
| Nc1c(Cl)cc(N=Nc2ccccc2)cc1Cl | · | 4 | 9 | -49 | 2 | 3402 | 0.6 |
| Clc1cccc(N2CCN(Cc3nnc(-c4ccccc4)o3)CC2)c1 | 0 | 10 | 13 | -7 | 0 | 4742 | 8.8 |
| COc1ccc(C(C)=NNc2nc(-c3ccc(Cl)cc3)cc(C(F)(F)F)n2)cc1OC | · | -6 | 5 | · | 50 | · | 1.7 |
| Cc1nc(Cl)sc1C(=O)Nc1cccc(Cl)c1 | 8 | -1 | -1 | -18 | 5 | 3184 | 0.8 |
| Cc1ccc(-c2nnc(CSc3nncn3N)o2)cc1 | -8 | -4 | -4 | -13 | 0 | 5889 | 2.1 |
| COC(=O)c1scc(C)c1NC(=O)C(Cl)c1ccccc1 (configuration not stated) | 1 | 20 | 11 | -44 | 10 | 2195 | 6.1 |
| CN(C)CCn1c(=O)n(Cc2ccccc2)c(=O)c2c3c(sc21)CCCCC3 | -5 | 18 | 8 | -6 | 0 | 4172 | 0.2 |
| N#Cc1ccccc1S(=O)(=O)N1CCN(C(=O)C2COc3ccccc3O2)CC1 (configuration not stated) | · | 5 | -2 | -12 | 8 | · | 2.1 |
| O=C(NN=Cc1ccc2c(c1)OCO2)c1ccc(Cn2cc(Br)c([N+](=O)[O-])n2)o1 | · | 3 | -2 | · | 15 | · | 8.8 |
| COc1cc(/C=N/N2CCN(Cc3ccccc3)CC2)cc(OC)c1OC(C)=O | 26 | · | · | -16 | · | 4029 | · |
| CCNC(=S)N1CCN(CCN=CC2=C(O)CC(c3ccco3)CC2=O)CC1 (configuration not stated) | 0 | · | · | -11 | 0 | 4349 | -4.7 |
| CCCS(=O)(=O)C(=C1NCCO1)S(=O)(=O)CCC | 0 | 6 | -1 | -9 | 5 | 2527 | -7.7 |
| Cc1nnc(C)n1/N=C/C=C/c1ccccc1 | 0 | · | · | 6 | · | 2309 | · |
| CC(C)N(C(=O)CC1ON(C)C(=O)N1c1ccc(Cl)cc1)C(C)C (configuration not stated) | 7 | -16 | 5 | -10 | -10 | 3528 | 0.3 |
| O=C(O)c1cccc(NN=Cc2cccc3ccccc23)c1 | · | 6 | -3 | · | 9 | · | 2.0 |
| CC(=O)N1c2ccc(F)c(F)c2CC1C (configuration not stated) | · | 6 | 7 | · | 9 | · | 8.6 |
| O=C(O)CCC(=O)NCC(=O)c1ccc(F)cc1 | 8 | -2 | 2 | -22 | 9 | 6349 | 2.8 |
| CCc1nnc(NC(=O)CSCc2cc(=O)n3cc(C)sc3n2)s1 | -2 | 4 | 3 | -6 | 10 | 4871 | 0.9 |
| O=C(Nc1ccc(CN2CCS(=O)(=O)CC2)cc1)c1ccc(F)cc1 | 2 | 7 | 1 | -4 | 15 | 6177 | 3.1 |
| CN(CC(=O)Nc1ccccc1Cl)C(=O)COC(=O)CSc1ccc(F)cc1 | 8 | 1 | -1 | -20 | 10 | 5353 | -0.3 |
| CC(C)(C)NC(=O)NC(=O)CN1CCC(Cc2ccccc2)CC1 | -10 | 7 | -2 | -22 | 4 | 4853 | 3.3 |
| O=C(NCCc1ccccc1)c1ccc(NC(=O)c2cccnc2)cc1 | -8 | 3 | 1 | -27 | 5 | 3482 | 4.4 |
| COc1cc2c(C#N)c(N3CCOCC3)nc(N)c2c(N)n1 | -17 | 4 | 13 | 3 | 7 | 3240 | 12 |
| CCn1c(CC(=O)Nc2ccccc2F)nnc1SCC(=O)N1CCOCC1 | 2 | 2 | -3 | -22 | 6 | 5287 | 2.5 |
| O=C(c1cc(-c2ccccc2)nc2ccccc12)N1CCCc2ccccc21 | -7 | 12 | 4 | 1 | 12 | 2684 | -6.5 |
| COC(=O)c1c(C)oc2c1cc(NS(=O)(=O)c1cccs1)c1ccccc12 | 0 | 3 | 8 | -18 | 7 | 2915 | 18 |
| O=C(CN1CCN(c2ccc(F)cc2)CC1)NCc1ccc(Cl)cc1 | -8 | 14 | 6 | -21 | 5 | 4369 | 4.4 |
| Cc1ccc(C(C)C)c(OCC(=O)OCC(=O)NC2CC2)c1 | · | 15 | 5 | -9 | 2 | 3949 | 9.3 |
| CC(=O)NCCn1c(SCc2cc(F)ccc2F)nc2ccccc2c1=O | -3 | 4 | 5 | -19 | 0 | 21737* | 3.4 |
| C/C(=N\Nc1nccnc1Cl)c1ccc([N+](=O)[O-])cc1 | -7 | · | · | -4 | · | 2987 | · |
| COc1ccccc1C(=O)N1CCN(C(=O)COc2cccc(C)c2)CC1 | -6 | 8 | 5 | 7 | 6 | 2434 | 0.3 |
| CCCOC(=O)Nc1ccccc1C(N)=O | 10 | 5 | 1 | -6 | 4 | 2393 | -8.5 |
| CC1(C)OC(c2ccccc2)=C/C(=C/C=C2C(=O)c3ccccc3C2=O)O1 | 4 | -4 | 0 | -12 | -1 | 2268 | -2.6 |
| Cn1c(NC2CCCCC2)cc(=O)n(C)c1=O | -5 | 12 | 5 | -27 | 0 | 3634 | 5.3 |
| COc1ccc(/C=N/NC(=S)Nc2cccc(C(=O)O)c2)cc1OC | -19 | · | · | 3 | · | 2377 | · |
| O=C(c1ccc(Cl)c(S(=O)(=O)N2CCOCC2)c1)N1CCN(c2ccccn2)CC1 | · | -2 | 1 | -18 | 10 | · | 7.3 |
| COc1ccc(C=NNC(=O)CNS(=O)(=O)c2ccccc2)cc1 | · | 3 | 4 | · | 10 | · | 2.6 |
| CCOC(=O)[C@@H]1[C@H]2COc3cc(OC)ccc3[C@@H]2N2C(=O)N(c3ccc(C)cc3)C(=O)[C@]12C | -10 | · | · | -14 | · | 3595 | · |

An excerpt of these results, with values under each structure:
Under each structure – BJeLR lethal, Mtb hypoxia rep, Mtb hypoxia rep growth, PrP 5UTR inh, Sa ugtP lethal, Autofluor counter, Sa RN4220 lethal
CC1(C)OC(c2ccccc2)=C/C(=C/C=C2C(=O)c3ccccc3C2=O)O1
→ 4, -4, 0, -12, -1, 2268, -2.6
C/C(=N\Nc1nccnc1Cl)c1ccc([N+](=O)[O-])cc1
→ -7, ·, ·, -4, ·, 2987, ·
CC(C)(C)NC(=O)NC(=O)CN1CCC(Cc2ccccc2)CC1
→ -10, 7, -2, -22, 4, 4853, 3.3
COc1ccc(/C=N/NC(=S)Nc2cccc(C(=O)O)c2)cc1OC
→ -19, ·, ·, 3, ·, 2377, ·
CC(=O)NCCn1c(SCc2cc(F)ccc2F)nc2ccccc2c1=O
→ -3, 4, 5, -19, 0, 21737*, 3.4
O=C(CN1CCN(c2ccc(F)cc2)CC1)NCc1ccc(Cl)cc1
→ -8, 14, 6, -21, 5, 4369, 4.4
O=C(c1cc(-c2ccccc2)nc2ccccc12)N1CCCc2ccccc21
→ -7, 12, 4, 1, 12, 2684, -6.5

New compounds follow
| molecule | BJeLR lethal | Mtb hypoxia rep | Mtb hypoxia rep growth | PrP 5UTR inh | Sa ugtP lethal | Autofluor counter | Sa RN4220 lethal |
| --- | --- | --- | --- | --- | --- | --- | --- |
| O=C1COc2ccc3ccccc3c21 | 9 | 15 | 8 | -15 | -1 | 3881 | -2.7 |
| CCOC(=O)c1c(C)[nH]c(C(=O)OCC(=O)NCc2ccccc2)c1C | · | 13 | 0 | -14 | 3 | 4712 | 7.7 |
| CCNC(=O)NC(=O)COC(=O)c1ccccc1SCC(=O)NC(=O)NCC | -3 | 2 | 3 | -97 | 4 | 4470 | 20 |
| O=C(Nc1ccccc1Cl)c1ccc2c(c1)N(Cc1ccc(F)cc1)C(=O)CS2=O (configuration not stated) | -12 | · | · | 1 | 7 | 6326 | -1.7 |
| O=C(CN1C(=O)NC2(CCCc3ccccc32)C1=O)c1ccc(Br)cc1 (configuration not stated) | 0 | 7 | 2 | -10 | 0 | ? | 5.2 |
| N=c1c(C(=O)NC2CCCC2)cc2c(=O)n3ccccc3nc2n1C1CCCC1 | 1 | 10 | -3 | -33 | 7 | 15750 | 2.3 |
| CCSc1nc(=S)n(Cc2ccccc2)c(C)c1C(C)=O | -5 | · | · | 14 | 3 | 2006 | 2.3 |
| CSC[C@H](NC(=O)Cc1c(C)c2cc3c(C)c(C)oc3cc2oc1=O)C(=O)N[C@@H](Cc1ccccc1)C(=O)O | 8 | · | · | -30 | -9 | 5471 | 3.2 |
| O=[N+]([O-])c1ccccc1-c1cc(-c2ccccc2)cc(-c2ccccc2)[n+]1Cc1ccccc1Cl | 11 | · | · | · | 98* | · | 86* |
| COc1cc(NC(=O)C2CCC(CNS(=O)(=O)c3csc(C(N)=O)c3)CC2)cc(OC)c1 (configuration not stated) | 11 | 4 | 3 | -14 | 2 | 5878 | 2.3 |
| Cc1cc(NC(=O)CSc2nc(-c3ccccc3)cs2)no1 | 2 | · | · | -26 | -8 | 2420 | -0.1 |

Assay outcomes as filed in PubChem BioAssay.
